ugtP null kill: growth inhibition of ugtP-null S. aureus, primary screen, RN4220 ugtP deletion, OD600 | growth inhibition, % (no concentration beside the values) | AID 1259309, 2017 | hit rate 0.54% among 330,000 | 16 h; some inactives read as strong as hits;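 active = z-score under -3 and OD600 up to 0.15 on both plates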;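 note: plate controls were untreated wells for no effect and antibiotic for full effect; wells of about 80 µL received 100 nL stock; the first replicate is given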
PrP 5UTR inh: inhibition of PrP 5' UTR reporter expression | cell-based PrP 5' UTR mRNA reporter, plate reader | inhibition, % (no concentration beside the values) | hit rate 0.35% among 340,000;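 active = every replicate at 50% or more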;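 note: 0 = median of the neutral control wells; tested in H4 reporter cells; numbers are from one replicate; inactives centre near -14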
BJeLR lethal: MLPCN primary cell-based screen for lethality selective to Ras in HRASV12 cells; inhibition, % (test concentration not listed); hit rate 0.17% among 300,000; BJeLR (HRASV12) viability, CellTiter-Glo ATP luminescence, 48 h; reference of the scale not given here; AID 1554, 2009;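 active = replicate mean above 50%; inconclusive = above 50% but judged a plate artefact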;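 note: 50 nL library stock added to about 25 µL; numbers are from one replicate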
Mtb hypoxia inh: PubChem AID 1159583 | fluorescence inhibition, % (concentration not given with the values) | hit rate 0.1% among 300,000 | M. tuberculosis hypoxia-regulated fluorescent reporter, fluorescence;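 active = 35 to 45% if threefold the growth effect, above 45% if 1.5-fold the growth effect; inactive = the rest, general growth blockers included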;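 note: wells of about 50 µL received 100 nL stock; 0% = vehicle wells and 100% = reference inhibitor wells; whole bacteria with a GFP reporter of the hypoxia response; strong numbers were not always called active; many hits fall short of the cut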
Sa RN4220 lethal: growth inhibition of S. aureus RN4220, primary screen, OD600; 16 h; inhibition, % (concentration not given with the values); hit rate 0.33% among 330,000; AID 1259311, 2017;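 active = z-score of -3 or lower and OD600 up to 0.18 on both plates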;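 note: plate controls were untreated cells for no effect and reference antibiotic for full effect; stock transfer was 100 nL into about 80 µL; one replicate is shown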
Bead autofluor: flagged as autofluorescent in microsphere protease counterscreen; compound autofluorescence counterscreen, microsphere flow cytometry; hits give high values; fluorescence intensity (no concentration beside the values); hit rate 3.1% among 360,000; AID 624483;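 active = at least 3 SD above the mean of all compounds, about 16000 in these data; inconclusive = too few beads counted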;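 note: 100 nL of 1 mM stock went into each well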
Mtb hypoxia inh growth: further read-out of Mtb hypoxia inh, marked with its call; growth inhibition, %; measured here: M. tuberculosis growth (absorbance);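 0% = vehicle and 100% = reference antibiotic; read after six days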
The depositor's hits bear a star; ? = inconclusive; . = no result given; & = joins results of further samples.

Results follow in this order: ugtP null kill	PrP 5UTR inh	BJeLR lethal	Mtb hypoxia inh	Mtb hypoxia inh growth	Sa RN4220 lethal	Bead autofluor
O=C(Nc1ccc2oc(=O)ccc2c1)c1ccccc1[N+](=O)[O-]
    3	-14	-6	21	8	8.5	4504
O=C(O)c1cccc2c1-c1ccccc1/C2=N\Nc1ccccc1
    .	-37	3	.	.	.	4168
O=C(Cc1coc2ccc3ccccc3c12)N1CCCC1
    -7	-14	-4	.	.	0.2	2162
CC(C)OCCCNC(=O)c1cc(-c2cccs2)nc2ccccc12
    15	-15	-11	3	11	0.2	3570
O=C(COC(=O)CNC(=O)c1sc2ccccc2c1Cl)Nc1c(Cl)cc(Cl)cc1Cl
    1	-1	0	12	7	5.3	9654
Nc1ncnc2c1ncn2C1CC(O)C(COP(=O)(O)O)O1 (stereo unspecified)
    6	.	.	-1	2	11	.
CCOc1ccc(NC(=O)c2cccnc2SC)cc1
    14	1	7	9	-10	5.3	3615
CCOC(C(=O)OCCCN(CC)CC)(c1ccccc1)c1ccccc1
    .	5	-5	.	.	.	2031
O=S(=O)(NC1CN2CCC1CC2)c1ccc(Cl)cc1 (stereo unspecified)
    8	-10	-1	-7	-1	3.4	3448
COC(=O)c1cc2c(s1)=NC=NP=2(N1CCOCC1)N1CCOCC1
    -1&5	36&-12	8	2&19	8&3	2.1&0.1	3993&7221
CN(CCOc1cccc(C(F)(F)F)c1)Cc1ccccc1
    3	-8	.	7	-4	3.7	4547
O=C(CC(=O)NN=Cc1c(F)cccc1Cl)NCc1ccccc1
    -2	.	.	1	-4	8.3	.
Cc1ccc(SCCNC(=O)c2ccccc2F)cc1
    5	-17	0	3	7	5.8	3964
COC(=O)c1cc(S(=O)(=O)N2CCN(c3cc(C)ccc3C)CC2)c[nH]1
    7	-13	9	5	-1	4.2	6361
CC(C)OCCCn1c(=S)[nH]c2ncccc2c1=O
    16	-25	0	6	1	6.6	3292

Single entries from the results shown.
Under ugtP null kill, CCOc1ccc(NC(=O)c2cccnc2SC)cc1 is entered as 14
Under Mtb hypoxia inh growth, O=C(Nc1ccc2oc(=O)ccc2c1)c1ccccc1[N+](=O)[O-] is entered as 8

Next section.
Results follow in this order: ugtP null kill	PrP 5UTR inh	BJeLR lethal	Mtb hypoxia inh	Mtb hypoxia inh growth	Sa RN4220 lethal	Bead autofluor
CC(=O)c1ccc(NC(=O)CSc2nnc(-c3ccoc3C)n2Cc2ccccc2)cc1
    -2	-12	6	2	7	-0.4	4963
O=c1[nH]nc(SCc2ccccc2)n1C1CC2C=CC1C2 (stereo unspecified)
    -1	-6	-6	1	2	8.0	6037
CCCN(Cc1cc(=O)[nH]c2ccccc12)C(=O)CC
    3	-7	-9	8	5	6.0	4361
Cc1ccc(OCCC(=O)Nc2ccc(C)c(F)c2)cc1
    -6	-11	-1	20	-3	-0.1	4607
Cc1cc(OCc2nn[nH]n2)c2c(C)c(Cc3ccccc3)c(=O)oc2c1
    -4	-20	0	.	.	8.3	2548
CCOC(=O)c1ccc(NC(=O)CCS(=O)(=O)Cc2ccccc2)cc1
    -6	-9	1	-10	-1	-1.4	4343
COc1ccc(C=Nn2c(C)nc3ccccc3c2=O)cc1
    -2	.	.	-9	-1	1.8	.
CC(C)(C)OC(=O)N1CCC[C@H]1C(=O)NN=Cc1cccc2nccnc12
    3	.	.	-3	-7	0.2	.
COc1ccc(C(=O)COC(=O)CN2C(=O)c3ccccc3C2=O)c(OC)c1
    -4	-22	1	3	-4	0.8	7164
CCN(CC)Cc1cc(CC(C(N)=O)C(N)=O)ccc1OC
    5	-17	1	19	8	4.0	4311
O=C(NN=Cc1nn(-c2ccccc2)cc1-c1ccccc1)c1ccncc1
    10	.	.	22	19	2.7	.
COc1ccc(CNC(=O)CSc2nc(C)cs2)cc1
    2	-25	2	1	3	-2.9	4126
Cc1nc2cc(NC(=O)c3ccc(Br)s3)ccc2s1
    -1	-77	18	11	13	-1.7	5898
Cc1nc2ccccc2cc1C(=O)NCc1ccco1
    2	11	-1	.	.	6.5	2220
CCCOc1ccc(C(F)(F)F)cc1NC(=O)CN1C(=O)C(=O)N(CC)C1=O
    5	-24	.	8	11	2.8	3850

Continued.
Results follow in this order: ugtP null kill	PrP 5UTR inh	BJeLR lethal	Mtb hypoxia inh	Mtb hypoxia inh growth	Sa RN4220 lethal	Bead autofluor
CS(=O)(=O)N1CCN(Cc2cc(=O)n3ccsc3n2)CC1
    1	-34	-7	1	18	1.6	4246
CCOC(=O)c1c(NC(=O)Cc2ccccc2)sc2c1CCN(C)C2
    0	-7	13	10	17	-10	5257
CCOC(=O)C1(CCc2ccccc2)CCN(Cc2cccc3nccnc23)CC1
    9	-24	0	8	2	2.1	3420
COC(=O)c1cccc(NC(=O)CN(c2ccc3c(c2)OCO3)S(C)(=O)=O)c1C
    0	-21	4	.	.	1.8	2738
Cc1[nH]c2ccccc2c1C(c1ccccn1)N1CCC(C)CC1 (stereo unspecified)
    -1	-14	-3	.	.	4.7	2157
Cc1ccc(C)c(C(=O)CN2C(=O)C(=O)N(C3CCCC3)C2=O)c1
    -2	3	.	-2	-1	0.1	3492
CCc1ccc(N2CC(C(=O)Nc3ccc4c(c3)OCO4)CC2=O)cc1 (stereo unspecified)
    6	-14	.	-3	3	2.1	8363
CN(c1ccc(OCC(=O)Nc2ccc3[nH]c(=O)[nH]c3c2)cc1)S(=O)(=O)c1ccc(Cl)cc1
    -2	-30	-9	-2	-1	3.4	8683
CC(=O)NS(=O)(=O)c1ccc(NC(=O)c2ccc(Cl)cc2[N+](=O)[O-])cc1
    9	-23	0	-2	3	6.0	4391
O=C(NCCNC(=O)c1ccc(Cl)cc1Cl)c1ccccn1
    0	-11	3	5	6	3.2	6107
Cc1cc(C)cc(NC(=O)c2ccc(Cn3nc(C)c(Cl)c3C)o2)c1
    -21	-20	-13	4	4	-2.1	3640
CSc1nsc(/C=C/Nc2ccc(F)cc2)c1C#N
    5	-9	.	6	1	0.2	3058
Cc1ccccc1NC(=O)CSc1nc(N)c(C#N)c(-c2cccs2)c1C#N
    1	8	3	.	.	3.3	2645
COc1ccc(N2CCN(C(=O)COC(=O)[C@@H](NC(=O)c3ccccc3Cl)C(C)C)CC2)cc1
    4	-1	.	-3	0	2.5	?
Cc1ccc(C(=O)C2CCN(CC(=O)Nc3ccc(N(C)C)cc3)CC2)cc1
    2	-13	9	1	14	-0.6	21202*

(more compounds)
Results follow in this order: ugtP null kill	PrP 5UTR inh	BJeLR lethal	Mtb hypoxia inh	Mtb hypoxia inh growth	Sa RN4220 lethal	Bead autofluor
CCN(CC(=O)Nc1c(F)cccc1F)C(=O)C(C)SCc1nc2sc(C)c(C)c2c(=O)[nH]1 (stereo unspecified)
    1	-6	1	6	11	-1.7	6104
CCN(CC)CCN(Cc1cc2cc3c(cc2[nH]c1=O)OCCO3)C(=S)NCC(C)C
    2	-10	0	3	-3	0.8	6068
CCOCCCNC(=O)CN1C(=O)/C(=C\c2ccc(C)cc2)Sc2ccccc21
    5	-19	9	-2	-2	1.6	10164
CCCCN(C(=O)CCC(=O)OCC(=O)NCc1ccccc1)c1c(N)n(CCC)c(=O)[nH]c1=O
    8	1	.	5	12	4.6	5484
O=C(CSc1nnnn1Cc1ccccc1)c1ccccc1F
    11	-24	0	4	5	5.2	4993
COc1ccc(N2CCN(C(=O)CCNC(=O)c3ccc(Br)cc3)CC2)cc1
    1	11	0	4	-2	3.8	.
CC(C)C(OC(=O)c1nsc(Cl)c1Cl)C(=O)NCC1CCCO1 (stereo unspecified)
    .	-11	8	.	.	.	4887
Cc1nn2c(N)c(C#N)cnc2c1-c1ccccc1
    -2	-1	-3	.	.	2.9	2464
O=[N+]([O-])c1ccc(N2CCN(S(=O)(=O)Cc3ccccc3)CC2)cc1N1CCOCC1
    -1	-13	-3	.	.	0.9	4841
COc1ccc(-n2nnnc2SCC(=O)NCCc2ccc(OC)c(OC)c2)cc1
    -1	-4	-8	2	6	2.8	12386
COC(=O)[C@]1(CC(C)C)NC(c2ccc(SC3CCCCC3)cc2)C2C(=O)N(C)C(=O)C21 (stereo partly specified)
    -13	.	.	13	16	-4.8	.
O=C(CSC1c2ccccc2-c2ccccc21)NN=Cc1ccccc1C(=O)O
    0	.	.	14	16	11	.
CCC(c1nnnn1Cc1ccc(OC)cc1)N1CCN(c2ccc(OC)cc2)CC1 (stereo unspecified)
    9	-10	15	-6	-7	1.1	3237
COCCNC(=S)N1CCC(C(=O)c2ccc(C)cc2)CC1
    8	-18	-1	11	3	5.9	3128
Cc1ccc(S(=O)(=O)N(C)CC(=O)Nc2nc3ccccc3s2)cc1
    -4	-4	1	-5	2	3.4	3807

(listing goes on)
Results follow in this order: ugtP null kill	PrP 5UTR inh	BJeLR lethal	Mtb hypoxia inh	Mtb hypoxia inh growth	Sa RN4220 lethal	Bead autofluor
NC(=O)c1sc2nc3c(c(-c4cccnc4)c2c1N)CCC3
    5	-33	-2	-9	0	4.2	10657
Cc1ccc(S(=O)(=O)CCSc2nccn2C)cc1
    -3	-13	1	3	18	1.4	5810
Cc1ccc([C@@H]2CC=C(C(=O)O)[C@H](c3cccc(F)c3)N2S(=O)(=O)c2ccccc2C)cc1
    17	-25	.	4	2	24	4016
Cc1ccsc1/C=N/NC(=O)c1nnn(-c2nonc2N)c1-c1ccccc1
    .	3	10	.	.	.	3760
O=C(NC1CC1)C(=O)c1c[nH]c2ccccc12
    -1	-17	13	2	0	1.5	5841
O=C(Nc1ncc(S(=O)(=O)c2ccc([N+](=O)[O-])cc2)s1)c1cccnc1
    3	-16	2	15	17	10.0	2927
Cn1c(=O)c2c(nc(NCc3ccc4c(c3)OCO4)n2Cc2ccccc2)n(C)c1=O
    -1	-13	3	.	.	1.9	3740
CCOC(=O)C1CCCN(CC(=O)Nc2c(F)c(F)c(F)c(F)c2F)C1 (stereo unspecified)
    5	-15	-9	.	.	-4.8	4651
Cc1cccc(COc2ccccc2C(=O)OCC(=O)N(C)c2c(N)n(Cc3ccccc3)c(=O)[nH]c2=O)c1
    0	-10	6	8	-34	-2.1	6009
COc1cc(OC)cc(OC(=O)c2ccc3c(=O)n4c(nc3c2)CCC4)c1
    -16	-20	-5	15	6	7.4	5710
O=C(N/C(=C\c1ccc(Br)cc1)C(=O)N1CCOCC1)c1ccc([N+](=O)[O-])cc1
    7	-15	-8	8	10	5.2	3647
Cc1ccc(NC(=O)CN2CCC(NC(=O)c3ccccc3F)CC2)cc1C
    .	-15	2	.	.	.	3750
Cc1cc(C)c(NC(=S)NC(=O)c2c(Cl)c(C)nn2C)c([N+](=O)[O-])c1
    23	7	11	12	2	21	9928
COc1cc(OC)cc(C(=O)NCC(=O)OC(C)C(=O)NC(C)C2CC3CCC2C3)c1 (stereo unspecified)
    2	31	.	8	9	5.5	3659
COc1ccc(CC(=O)Nc2sc3c(c2C#N)CC(C)(C)NC3(C)C)cc1OC
    11	5	1	-8	2	4.9	.

Next section.
Results follow in this order: ugtP null kill	PrP 5UTR inh	BJeLR lethal	Mtb hypoxia inh	Mtb hypoxia inh growth	Sa RN4220 lethal	Bead autofluor
CCCCn1c(CCCNC(=O)CC)nc2ccccc21
    -5	4	0	13	11	-8.9	5187
O=C(COC(=O)c1ccco1)NCc1ccc(Cl)cc1Cl
    9	-11	.	1	1	7.8	?
COC(=O)c1ccc(CN2CCCC(CNC(=O)Cc3ccc(OC)cc3)C2)cc1 (stereo unspecified)
    12	-7	5	7	8	1.4	5632
CC(=O)CCc1c(C)nc2ccc(C)cc2c1Cl
    -3	-21	-3	7	8	5.2	4854
CCOC(=O)C1C2COc3ccc(Cl)cc3C2N2C(=O)c3cc(Br)ccc3NC(=O)[C@@]12C (stereo partly specified)
    -31	.	.	-3	16	-13	.
Cc1ccccc1NC(=O)C1CCC(=O)N1 (stereo unspecified)
    8	-61	-6	12	4	5.7	3880
COc1ccc(C2CC(C(F)(F)F)n3ncc(C(=O)NCC4CCCO4)c3N2)cc1OC (stereo unspecified)
    2	-13	17	5	9	1.6	2435
Cc1onc(-c2ccccc2)c1C(=O)c1c[nH]c(C(=O)NCCCN2CCOCC2)c1
    16	-9	4	5	-4	5.2	3468
Cc1c(N=Nc2c(O)n(C)c(=O)n(C)c2=O)c(=O)n(-c2ccccc2)n1C
    6	-32	19	9	7	0.7	2824
Cc1ccc(NC(=O)Cc2ncon2)cc1Cl
    -5	-19	7	8	9	0.5	6242
COc1ccc(Cn2c(=O)c3c(nc(NCCO)n3C)n(C)c2=O)cc1
    .	-12	-7	.	.	.	?
NS(=O)(=O)c1ccc(Cl)c(C(=O)Nc2ccccc2[N+](=O)[O-])c1
    7	-10	-3	8	7	4.8	3508
